Screening data: PubChem, Johns Hopkins Ion Channel Center
CHT block: inhibitors of human choline transporter CHT | High affinity choline transporter 1 (Homo sapiens), Q9GZV3 | CHT-expressing cells, membrane potential dye, choline response; active compounds read low | B-score at 10 µM | 310,000 compounds, 0.86% hits | AID 488975, 2010;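 active means B-score over 3 SD under the library average, and starting fluorescence ratio not unusually high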;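 further: choline stimulus applied at its EC90 after an EC20 pre-addition; B-score computed on integrated fluorescence ratio after choline addition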
Target sequence (Q9GZV3 whole entry, looked up): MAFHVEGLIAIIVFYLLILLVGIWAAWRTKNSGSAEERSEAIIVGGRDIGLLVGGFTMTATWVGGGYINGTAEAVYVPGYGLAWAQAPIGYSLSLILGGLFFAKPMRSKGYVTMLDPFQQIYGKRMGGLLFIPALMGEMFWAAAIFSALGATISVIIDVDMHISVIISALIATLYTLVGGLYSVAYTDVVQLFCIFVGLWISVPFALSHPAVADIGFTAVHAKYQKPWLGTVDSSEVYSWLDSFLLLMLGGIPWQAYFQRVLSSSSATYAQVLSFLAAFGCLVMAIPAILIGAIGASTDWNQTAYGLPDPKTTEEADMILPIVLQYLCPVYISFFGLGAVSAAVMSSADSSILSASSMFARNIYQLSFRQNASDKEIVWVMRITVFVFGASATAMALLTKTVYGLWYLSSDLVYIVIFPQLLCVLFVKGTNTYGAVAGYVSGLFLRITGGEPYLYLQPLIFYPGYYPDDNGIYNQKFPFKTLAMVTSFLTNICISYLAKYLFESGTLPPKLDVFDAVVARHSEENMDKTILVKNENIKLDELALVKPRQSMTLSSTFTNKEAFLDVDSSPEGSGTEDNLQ
Calls only; i = inactive. These rows are one share of the data; most or all hits stand in other tables.

Preview, 4 compounds:
CHT block	Compound
i	COc1ccc(CCn2c(C)cc3c(c2=O)C(c2ccc4c(c2)OCO4)C(C#N)=C(N)O3)cc1OC (stereo not given)
i	Cc1ccc(C(=O)N/N=C\c2ccc([N+](=O)[O-])s2)cn1
i	CCN(CC)CCCNC(=O)CNC(=O)c1nn(-c2ccc(OC)c(OC)c2)c(=O)c2ccccc12
i	COC(=O)c1c(NC(=O)CN2CCN(C(=O)c3ccco3)CC2)c2cc(C)ccc2n1C

Main list, repeating the preview:
CHT block	Compound
i	COc1ccc(CCn2c(C)cc3c(c2=O)C(c2ccc4c(c2)OCO4)C(C#N)=C(N)O3)cc1OC (stereo not given)
i	Cc1ccc(C(=O)N/N=C\c2ccc([N+](=O)[O-])s2)cn1
i	CCN(CC)CCCNC(=O)CNC(=O)c1nn(-c2ccc(OC)c(OC)c2)c(=O)c2ccccc12
i	COC(=O)c1c(NC(=O)CN2CCN(C(=O)c3ccco3)CC2)c2cc(C)ccc2n1C
i	CCCOc1ccc(C2C(C(=O)c3ccc(C)o3)=C(O)C(=O)N2CCCn2ccnc2)cc1 (stereo not given)
i	Cc1nn(C(C)C(=O)NCC2CCCO2)c(=O)c2c1sc1ccccc12 (stereo not given)
i	Cc1nc(Cl)sc1C(=O)Nc1cc(F)cc(F)c1
i	CC(NC(=O)c1ccccc1Cl)c1nnc(SCC(=O)Nc2ccc(C(=O)O)cc2)n1C (stereo not given)
i	COc1ccc2nc(C)cc(NCc3ccc(F)cc3)c2c1
i	COc1ccc(/C=N/NC(=O)c2cccc(C(F)(F)F)c2)cc1
i	Cc1nc(N(C)C)c2sc(=S)n(C)c2n1
i	COc1cccc(NC(=O)Cn2c3ccc(F)cc3c3nc4n(c(=O)c32)CCS4)c1
i	O=C(NCc1ccccc1)C1CC(=O)N(c2ccc(OCC(=O)N3CCCC3)cc2)C1 (stereo not given)
i	CCOc1ccc2nc(NC(=O)c3ccc(S(=O)(=O)N4CCOCC4)cc3)sc2c1
i	N#Cc1c(-c2ccccc2F)cc(C2CC2)nc1SCC(=O)c1cccs1
i	O=C(c1ccc(CS(=O)c2cccc(Cl)c2)o1)N1CCOCC1 (stereo not given)
i	Cc1noc(C)c1CC(=O)NC1CC(C)(C)Cc2c1cnn2-c1ccccc1 (stereo not given)
i	CCCc1cc(-c2nc(-c3ccc(C)cc3)cs2)ccn1
i	COc1ccc2c(c1)Cc1sc(NC(=O)c3cccnc3)nc1-2
i	O=C(Nc1nncs1)c1cc(-c2ccncc2)nc2ccc(Cl)cc12
i	CCOC(=O)c1c(NC(=O)c2c(Br)cnn2C)c(C#N)nn1-c1ccccc1
i	O=C(O)COc1ccccc1O
i	CC(C)NC(=S)N(CCc1ccncc1)C(C)C
i	CC1CC(=O)NN1C(=O)c1ccccc1 (stereo not given)
i	CCCn1c(=N)n(CCOc2ccc(OC)cc2)c2ccccc21
i	CCN(CC)c1cc(CS(=O)c2ccccc2)nc(-c2ccccc2)n1 (stereo not given)
i	O=C(NC(c1ccccc1)c1ccccc1)c1ccc(CO)cc1
i	CC(C)NC(=O)CN1C(=O)C(C)(C)Oc2ccc(C(=O)NC3CCCCC3)cc21
i	COc1cccc2[nH]c(C(=O)NCC3CCCO3)cc12 (stereo not given)
i	Cc1cccc2nc(Cn3c(=O)n(CCCC(=O)NCc4ccco4)c(=O)c4ccccc43)cc(=O)n12
i	Cc1cc(S(=O)(=O)N2CCCC2)ccc1OCC(=O)Nc1ccccc1
i	Cn1c(=O)c2c(nc(N3CCN(c4ccc([N+](=O)[O-])cc4)CC3)n2C)n(C)c1=O
i	COc1ccc(OCC(O)CNC(=O)Nc2ccc(Cl)cc2)cc1 (stereo not given)
i	O=C(CSc1nc(=O)n(CCCN2CCOCC2)c2c1CCC2)Nc1ccc([N+](=O)[O-])cc1
i	Cc1ccc(Cl)c(NC(=S)N(CCCN2CCOCC2)Cc2ccco2)c1
i	COc1ccc(OC)c(NC(=O)Cn2c(=O)oc3ccccc32)c1
i	CS(=O)(=O)N1CCC(C(=O)Nc2ccccc2Cl)CC1
i	Cc1ccc(S(=O)(=O)CCc2nnc(N)s2)cc1C
i	Cc1cc(CN(C)C(=O)c2cc(COc3ccc(C)c(C)c3)on2)n[nH]1
i	CCOc1ccc(CCNC(=O)CN2C(=O)NC3(CCCCC3C)C2=O)cc1OCC (stereo not given)
i	CNS(=O)(=O)c1cc(C(=O)O)ccc1OC
i	COCCNC(=O)c1cccc(S(=O)(=O)N2CC3(C)CC2CC(C)(C)C3)c1 (stereo not given)
i	CN(CC(O)COC(c1ccccc1)c1ccccc1)C1CCCCC1 (stereo not given)
i	O=C(O)[C@H](Cc1ccccc1)NC(=O)C(c1ccccc1)(c1ccccc1)c1ccccc1
i	COc1ccc(-c2cc(C(=O)c3c(N)n(C)c(=O)n(C)c3=O)c3ccccc3n2)cc1
i	Cc1cc2ncn(S(=O)(=O)c3ccc(F)cc3)c2cc1C
i	O=C(COc1ccccc1)Nc1cccc(-c2nn[nH]n2)c1
i	CCCCn1cnc2c([nH]c3ccccc32)c1=O
i	NS(=O)(=O)c1cccc2cccnc12
i	O=C1CCCc2c1cc(C(=O)O)c(=O)n2-c1ccccc1

The listing continues.
CHT block	Compound
i	Cc1cnc(C(=O)Nc2cc(F)ccc2C)cn1
i	CCc1nnc(NC(=O)CCC(=O)N2CCN(CCc3ccccc3)CC2)s1
i	CCCC(=O)Nc1nc2n(n1)C(c1ccccc1)CC(=O)N2 (stereo not given)
i	COC(=O)c1ccc(CN2CCN(Cc3ccc(C(=O)OC)o3)CC2)o1
i	Cc1cccc(-c2nsc(SCC(=O)NCc3ccc4c(c3)OCO4)n2)c1
i	Cc1cc(C(=O)N/N=C/c2cc(Br)ccc2OC(=O)c2ccc(Br)cc2)n[nH]1
i	COc1ccccc1/C=N/Nc1nncc2ccccc12
i	CCn1ncc(/C=C/C(=O)c2ccccc2)c1C
i	N#Cc1c(-c2ccccc2)cc(C2CC2)nc1N
i	CC(=O)N1c2ccc(S(=O)(=O)NCCC(=O)Nc3ccc(C)cn3)cc2CC1C (stereo not given)

Given tab-delimited: part of the list above
compound	CHT block
CC(C)NC(=S)N(CCc1ccncc1)C(C)C	i
CC1CC(=O)NN1C(=O)c1ccccc1 (stereo not given)	i
CCCn1c(=N)n(CCOc2ccc(OC)cc2)c2ccccc21	i

(more compounds)
CHT block	Compound
i	Cc1nn(Cc2ccc(C(=O)N3N=C(C(F)F)CC3(O)C(F)F)o2)c(C)c1[N+](=O)[O-] (stereo not given)
i	CN1CCN(C(=S)NC(=O)/C=C/c2ccccc2Cl)CC1
i	Cn1cc(CN2CCCCC2C(=O)Nc2ccc(-n3cccn3)cc2)cn1 (stereo not given)
i	O=C(Nc1ccc(Br)cc1)c1cccc(N2C(=O)CCC2=O)c1
i	Cn1c(=O)c2ccccc2n(CC(=O)N2CCCc3ccccc32)c1=O
i	C=CCn1c(=O)c2ccccc2n2c(SCC(=O)O)nnc12
i	O=C(CC(c1ccco1)S(=O)(=O)c1ccccc1)c1ccccc1 (stereo not given)
i	C=C(C)c1cccc(C(C)(C)NC(=O)NCc2cccnc2)c1
i	COc1cc(C2CC(=O)NC3=C2C(=O)CC(C)(C)C3)cc(OC)c1O (stereo not given)
i	Oc1cccc(-c2nc3c4c(ncn3n2)-c2ccccc2CC42CCCC2)c1
i	COc1ccc2c(c1)c(=O)c(C(=O)c1ccc(C)cc1)cn2CC(=O)Nc1ccc(F)cc1
i	Cc1[nH][nH]c(=O)c1C(c1ccc(-c2ccccc2C(=O)O)o1)c1c(C)[nH][nH]c1=O
i	Cc1ccccc1C(=O)N1CCC(C(=O)N(C)CCOc2ccccc2)CC1
i	Cc1ccccc1NC(=O)Cc1nnc(SCC(=O)N2CCOCC2)n1C
i	COC(=O)C1=C(C)N(c2ccc(Cl)c(Cl)c2)C(=O)C1
i	CCOC(=O)c1oc2ccccc2c1NC(=O)CCl
i	CCOc1cc(N2CCOCC2)c(OCC)cc1NC(=O)c1ccc(C)cc1
i	O=C1CC(c2ccccc2)CC(O)=C1C=NCc1ccc(Cl)c(Cl)c1 (stereo not given)
i	COc1ccc(F)cc1C(=O)C1CCCN(C(=O)c2ccc(C(C)=O)s2)C1 (stereo not given)
i	CC(C)(C)c1ccc(CSc2nc(N)cc(=O)[nH]2)cc1
i	CC1CCC(NC(=O)CCNC(=O)c2ccc(Br)cc2)CC1 (stereo not given)
i	Cn1cc(CNC(=O)COc2ccc(Cl)cc2Cl)cn1
i	O=C(CCC(=O)N1CCOc2ccccc21)Nc1ccc(F)cc1F
i	CCOC(=O)N1CCC(NC(=O)CCc2nc(-c3ccccc3F)no2)CC1
i	O=C(NCCC(=O)N1CCCCCCC1)c1ccc(Cl)cc1
i	Cc1ccc2c(c1)CCCN2C(=O)c1cc(C)on1
i	CC(C)(C)CN1CCN(Cc2nc(-c3ccc(F)cc3)cs2)CC1CCO (stereo not given)
i	Cc1cccc(C)c1NC(=O)C1CCCN1S(=O)(=O)c1ccc2c(c1)n(C)c(=O)c(=O)n2C (stereo not given)
i	Cc1cccc(C)c1NC(=O)CSc1nnc(-c2cccnc2)o1
i	Cc1cc(CNC(=O)Cc2ccc(F)cc2)c2ccccc2n1
i	COc1ccc(N(CC(=O)Nc2ccccc2F)S(=O)(=O)c2ccc(OC)c(OC)c2)cc1
i	CC(C)NC(=O)CCS(=O)(=O)c1ccc(Br)s1
i	O=C(O)/C=C/C(=O)Nc1cccc2cccnc12
i	COc1nc(OC)nc(N2CCC(C(=O)Nc3cccc4c3CCCC4)CC2)n1
i	Cc1cc(C(F)(F)F)n(-c2nc(C(=O)Nc3cccnc3)cs2)n1
i	CC(C)[C@H](NC(=O)N1CCC(Cc2ccccc2)CC1)C(=O)O
i	CN(CC(=O)Nc1ccccc1Br)C(=O)CNC(=O)c1ccc(Oc2ccccc2)cc1
i	CSc1ccccc1NC(=O)C1C2CCC(C2)C1C(=O)O (stereo not given)
i	Cc1ccc(-c2cc(C(=O)N3CCN(c4ncccn4)CC3)c3cc(Br)ccc3n2)o1
i	CCOC(=O)Cn1c(S(=O)(=O)Cc2ccccc2)nc2ccccc21
i	CCOc1ccc(C(=O)c2nc3c(n2O)CCCC3)cc1
i	Cc1cc(=O)oc2cc(OCC(=O)N3CCCc4ccccc43)ccc12
i	CCN=C1NN=C(c2cc(C)n(Cc3ccco3)c2C)CS1
i	COc1ccc(Cc2nnc(NC(=O)c3ccc(OC)c(OC)c3)s2)cc1
i	COc1cc(OC)cc(-c2nc(=S)n3ccsc3n2)c1
i	O=C(COc1ncnc2ccc(Br)cc12)Nc1ccc(N2CCOCC2)cc1
i	CCc1ccc(C(=O)NCc2ccc(Cl)cc2)cc1
i	C[C@@H]1C[C@@H]2OC(=O)[C@]3(C)[C@H]2[C@@H](OC3(C)O)[C@]2(C)C(=O)CC[C@H]12 (stereo not given in full)
i	CCN(CC(=O)Nc1ccccc1C(F)(F)F)C(=O)c1cc(-c2cccs2)nn1-c1ccccc1
i	O=C(Cc1cccc2ccccc12)Nc1nnc(-c2cccc([N+](=O)[O-])c2)s1

(next part)
CHT block	Compound
i	COc1cc(CO)cc(Br)c1OCC(=O)N1CCCCC1
i	O=C1CSC(=Nc2ccc(O)cc2)N1
i	COC(=O)c1ccc(C2/C(=C(/O)c3ccc4c(c3)CC(C)O4)C(=O)C(=O)N2Cc2cccnc2)cc1 (stereo not given)
i	COC(=O)c1cc(=O)nc2sc(-c3ccccc3)nn12
i	COc1ccc(C(CC(=O)N2CCCC2)C(C)C)cc1 (stereo not given)
i	CC(=O)OCC1=C(C(=O)O)N2C(=O)C(NC(=O)C(C)Cn3nc(C)c(Cl)c3C)C2SC1 (stereo not given)
i	CC(=O)NC(Cc1cccc(F)c1)C(=O)NC1CCN(C(=O)c2ccc(C)cc2)CC1 (stereo not given)
i	COc1ccc(C(=O)c2ccccc2)cc1Br
i	CN(C)S(=O)(=O)c1ccc2oc(SCC(N)=O)nc2c1
i	Cc1cc2nc(CCN(C(=S)NCC3CCCO3)C3CCCC3)[nH]c2cc1C (stereo not given)

Looked up by structure from the list above:
CHT block	Compound
i	COc1ccc(C(CC(=O)N2CCCC2)C(C)C)cc1 (stereo not given)
i	COC(=O)c1ccc(C2/C(=C(/O)c3ccc4c(c3)CC(C)O4)C(=O)C(=O)N2Cc2cccnc2)cc1 (stereo not given)
i	COC(=O)c1cc(=O)nc2sc(-c3ccccc3)nn12

Arranged by count of non-hydrogen atoms (descending): 6 of the compounds above
CHT block	Compound
i	COC(=O)c1ccc(C2/C(=C(/O)c3ccc4c(c3)CC(C)O4)C(=O)C(=O)N2Cc2cccnc2)cc1 (stereo not given)
i	CC(=O)NC(Cc1cccc(F)c1)C(=O)NC1CCN(C(=O)c2ccc(C)cc2)CC1 (stereo not given)
i	Cc1cc2nc(CCN(C(=S)NCC3CCCO3)C3CCCC3)[nH]c2cc1C (stereo not given)
i	COC(=O)c1cc(=O)nc2sc(-c3ccccc3)nn12
i	COc1ccc(C(=O)c2ccccc2)cc1Br
i	O=C1CSC(=Nc2ccc(O)cc2)N1

More results:
CHT block	Compound
i	COC(=O)Nc1ccc(S(=O)(=O)N2CCCCC2C(=O)NCc2ccco2)cc1 (stereo not given)
i	CSc1ccc(/C=C(\NC(=O)c2ccccc2)C(=O)NN)cc1
i	O=C(O)c1cc(-c2ccncc2)nc2ccc(S(=O)(=O)N3CCOCC3)cc12
i	CCOc1ccc(NC(=O)CC2NCCNC2=O)cc1 (stereo not given)
i	CCOC(=O)CC1C(=O)NCCN1C(=S)Nc1ccccc1 (stereo not given)
i	O=C(CN1CCN(S(=O)(=O)N2CCCCCC2)CC1)Nc1ccc(F)cc1
i	Cc1[nH]c2c(C)cccc2c(=O)c1CN1CCCCCC1
i	CN(c1cccc(NC(=O)c2ccc(Cl)c(S(=O)(=O)Nc3ccccc3)c2)c1)S(C)(=O)=O
i	O=C(O)c1ccc(CNc2ccccc2C(=O)O)cc1
i	O=C(Nc1cccc(F)c1)c1cc(-c2ccco2)nc2ccccc12
i	Cc1ccc2cc(C#N)c(NCCNC(=S)NCCCN3CCOCC3)nc2c1
i	CCCC(=O)Nc1nnc(CC(=O)OCC)s1
i	C=CCn1c(NCc2ccccc2)nc2ccccc21
i	O=C(CSc1nnc(CNC(=O)c2ccc(F)cc2)o1)NCc1ccccc1
i	O=c1c2ccccc2nnn1CSc1nc2ccccc2c(=O)n1Cc1ccco1
i	Cc1ccccc1-n1cc(C(=O)c2cc(Cl)ccc2O)cc(C#N)c1=O
